# ALR H2O2 inh: blocks human ALR sulfhydryl oxidase activity; P55789; purified ALR, DTT oxidation, H2O2 HRP-luminol luminescence; inhibition, % (concentration not given with the values); 290,000 compounds, 3.8% hits; AID 485317;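 active = mean and each replicate at 75% or more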;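 also: stock transfer was 7.5 nL into about 7.5 µL; 0% = neutral wells and 100% = wells with inactivated enzyme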
# HNF4A DNA FP: change in binding of human HNF4 alpha to DNA; 360,000 compounds, 0.3% hits; activity change, % at 10 µM; AID 1224865; P41235; HNF4a-FITC DNA binding, fluorescence polarization, 1 h; in the data active = activity change above about 30%, passing the limit was not always enough;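 also: controls were the assay level and a saturating level of protein; the project sought stronger binding though the title names inhibitors; some compounds called inactive have numbers as strong as hits; positive values seem to mean higher polarization but the record does not say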
# Target sequence (P41235 whole entry, looked up): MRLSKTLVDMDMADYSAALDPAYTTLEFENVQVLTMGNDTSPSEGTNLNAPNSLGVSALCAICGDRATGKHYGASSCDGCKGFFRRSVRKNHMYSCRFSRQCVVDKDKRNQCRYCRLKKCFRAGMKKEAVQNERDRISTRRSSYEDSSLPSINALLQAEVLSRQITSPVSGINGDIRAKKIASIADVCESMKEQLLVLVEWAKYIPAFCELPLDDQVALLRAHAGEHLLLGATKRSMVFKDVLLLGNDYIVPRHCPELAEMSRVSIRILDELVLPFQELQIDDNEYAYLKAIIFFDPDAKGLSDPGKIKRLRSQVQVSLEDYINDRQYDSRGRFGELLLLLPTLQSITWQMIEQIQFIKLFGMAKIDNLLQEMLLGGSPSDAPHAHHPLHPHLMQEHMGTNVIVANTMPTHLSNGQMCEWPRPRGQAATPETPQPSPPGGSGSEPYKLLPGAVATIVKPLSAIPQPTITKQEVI
# AF4-AF9 inh: blocks AF4 peptide binding to human AF9; inhibition, % at 10 µM; 350,000 compounds, 0.47% hits; AID 651704; AlphaScreen, biotin-AF4 peptide binding to FLAG-AF9; P42568;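 active = every replicate reaching a set inhibition limit, whatever the replicate mean, cut at about 25% in these data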;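 also: 0% = plate neutral control median and 100% = total signal loss; the record names both 10 and 1 µM as test concentration; the first replicate is given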
# Target sequence (P42568 whole entry, looked up): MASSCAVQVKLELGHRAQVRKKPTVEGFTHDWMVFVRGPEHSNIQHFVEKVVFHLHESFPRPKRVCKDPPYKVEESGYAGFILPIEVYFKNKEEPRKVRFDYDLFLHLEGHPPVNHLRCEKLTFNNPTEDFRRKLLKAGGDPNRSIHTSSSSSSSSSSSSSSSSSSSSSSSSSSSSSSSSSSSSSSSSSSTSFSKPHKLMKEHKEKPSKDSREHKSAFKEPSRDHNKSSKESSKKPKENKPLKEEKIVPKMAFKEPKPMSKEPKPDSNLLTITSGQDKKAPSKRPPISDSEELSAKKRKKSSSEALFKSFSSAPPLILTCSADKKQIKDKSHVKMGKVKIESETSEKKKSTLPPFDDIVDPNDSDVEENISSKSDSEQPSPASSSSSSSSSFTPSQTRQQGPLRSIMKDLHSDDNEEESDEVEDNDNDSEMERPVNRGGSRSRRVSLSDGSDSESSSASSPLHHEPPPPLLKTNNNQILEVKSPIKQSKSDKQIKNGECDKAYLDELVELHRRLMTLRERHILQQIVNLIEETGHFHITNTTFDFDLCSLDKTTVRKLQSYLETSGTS
# FGF22 binding: binders of recombinant human FGF22 by thermal shift. calls only at 9.99 µM. SYPRO orange fluorescence; percent of sucrose octasulfate shift, DMSO zero. AID 651658. 340,000 compounds, 1.5% hits;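 active = melting point raised past a set limit in the mean and every replicate; three in four hits are not shown here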
# Ecoli growth: E. coli growth inhibition; OD600 absorbance (no concentration beside the values); AID 1053175; Escherichia coli growth, OD600, 23 h; hits give low values; 330,000 compounds, 0.21% hits;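 active = OD600 absorbance below the run mean of sample wells minus 3.6 SD, in any replicate, cut at about 0.56 in these data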;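 also: stock transfer was 300 nL into about 60 µL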
# Ecoli rRNA inh: selective bacterial rRNA inhibition in E. coli; E. coli WT GFP vs humanized-ribosome RFP mutants, fluorescence, 24 h; hits give low values; DMSO median 0, no signal -100; GFP signal change (wild-type ribosome), % (no concentration beside the values); 350,000 compounds, 1.6% hits;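 active = significant combined selectivity score with lowered wild-type GFP, culture density cut under 30%, mutant RFP and density less affected; inactive = any of these conditions unmet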; also: one replicate is shown; some compounds called inactive have numbers as strong as hits
# Vif TR-FRET: inhibitors of Vif binding to APOBEC3G peptide, primary screen, biochemical, TR-FRET, GST-Vif 1-94, biotin-A3G peptide, dose response retest (AID 1117319) | TR-FRET GST-Vif / biotin-A3G peptide binding; higher % means a stronger effect; test concentration not given here; strong numbers were not always called active | 260,000 compounds, 0.57% hits | inhibition, %; hits with a dose series show IC50 in µM;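 active = above the screen mean plus three standard deviations and confirmed in dose response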;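 also: Vif residues 1-94 fused to GST binding biotinylated APOBEC3G peptide 110-148; 0% = full assay without inhibitor and 100% = GST in place of GST-Vif; retest series ran down from 100 µM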
# Ecoli rRNA inh OD600: also measured in Ecoli rRNA inh; calls as there; OD600 change, %; measured here: OD600 growth;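 optical density of the mix in the first replicate; 0 = DMSO median and -100 = no signal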
# Ecoli rRNA inh RFP: second read-out of Ecoli rRNA inh, no call of its own (marks repeat the call); RFP signal change, %; measured here: RFP humanized mutant strains;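 first replicate; 0 = DMSO median and -100 = no signal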
# Active calls of the source: *; i = inactive; . = no result given; & = joins results of further samples. Not all compounds are listed, so the mix of outcomes need not match the whole.
# Preview, 3 compounds:
SMILES,ALR H2O2 inh,HNF4A DNA FP,AF4-AF9 inh,FGF22 binding,Ecoli growth,Ecoli rRNA inh,Ecoli rRNA inh OD600,Ecoli rRNA inh RFP,Vif TR-FRET
CC(C)NC(=O)N(C)C[C@H]1OCCCC[C@@H](C)Oc2ccc(NC(=O)Nc3ccc(F)cc3)cc2C(=O)N([C@@H](C)CO)C[C@H]1C,.,.,1.4,i,.,-5,-9,4.8,.
COc1ccc(CNC(=O)C[C@@H]2C[C@H]3c4cc(NS(C)(=O)=O)ccc4O[C@H]3[C@H](CO)O2)cc1,.,.,-1.0,i,.,2,3,-3.1,.
CCCCNC(=O)OCC(CC)NC(=O)OCC(C)C (centres undefined),-3,4.3,.,.,0.74,.,.,.,1%

# All compounds of this part (from the top)
SMILES,ALR H2O2 inh,HNF4A DNA FP,AF4-AF9 inh,FGF22 binding,Ecoli growth,Ecoli rRNA inh,Ecoli rRNA inh OD600,Ecoli rRNA inh RFP,Vif TR-FRET
CC(C)NC(=O)N(C)C[C@H]1OCCCC[C@@H](C)Oc2ccc(NC(=O)Nc3ccc(F)cc3)cc2C(=O)N([C@@H](C)CO)C[C@H]1C,.,.,1.4,i,.,-5,-9,4.8,.
COc1ccc(CNC(=O)C[C@@H]2C[C@H]3c4cc(NS(C)(=O)=O)ccc4O[C@H]3[C@H](CO)O2)cc1,.,.,-1.0,i,.,2,3,-3.1,.
CCCCNC(=O)OCC(CC)NC(=O)OCC(C)C (centres undefined),-3,4.3,.,.,0.74,.,.,.,1%
C[C@@H]1CCCCO[C@@H](CN(C)C(=O)Nc2ccc(C(F)(F)F)cc2)[C@H](C)CN([C@@H](C)CO)C(=O)c2cc(NS(=O)(=O)c3cccs3)ccc2O1,.,.,-2.6,i,.,-2,6,-3.4,.
O=C(c1ccccc1)C1CCN(CC(=O)N2CCN(c3ccccc3)CC2)CC1,22,6.0,5.2,i,0.67,2,-5,0.4,-5%
OC(c1ccccc1)(c1nc(-c2ccccc2)cs1)C(F)(F)F (centres undefined),.,0.1,-6.4,i,.,-27,-48,-2.8,.
COc1cccc(NC(=O)N(C)C[C@@H]2Oc3cc(C#Cc4ccncc4)ccc3S(=O)(=O)N([C@H](C)CO)C[C@H]2C)c1,.,.,1.0,i,.,-3,-4,2.6,.
FC(F)(F)c1nc(NCc2cccnc2)c2ccccc2n1,-2,-0.3,1.8,i,0.67,-15,-13,-2.8,.
CC1(C)NC(=O)N(CCOc2cccc(Oc3ccccc3)c2)C1=O,-20,2.2,9.6,i,0.65,-23,-29,0.7,1%
C[C@H]1CN([C@@H](C)CO)S(=O)(=O)c2ccc(Br)cc2O[C@H]1CN(C)S(=O)(=O)c1ccc(F)cc1,.,.,2.3,i,.,-14,-41,-1.3,.
Clc1ccc(-c2nnnn2-c2ccc(Cl)cc2)cc1,-1,-0.8,-2.2,i,0.66,6,-5,2.3,-2%
COC(=O)C1=C(N)Oc2cc(C)n(Cc3cccnc3)c(=O)c2C1c1cccc(OC)c1OC (centres undefined),-4,-1.3,.,.,0.66,.,.,.,80%
CC(=O)Nc1ccc(S(=O)(=O)Nc2cccc(-n3cnnn3)c2)cc1,-6,3.3,2.2,i,0.64,-4,-15,-2.7,-4%
Cc1oc(-c2ccccc2Cl)nc1CS(=O)CC(=O)NCc1ccco1 (centres undefined),98*,-0.2,1.3,i,0.65,0,-3,-2.2,2%
Cc1cc(/C=C2/C(=N)N3C(c4ccccc4)=CSC3=NC2=O)c(C)n1-c1ccccc1,-4,11,.,.,0.7,.,.,.,15%
C[C@H](CO)N1C[C@H](C)[C@@H](CN(C)Cc2ccc(C(F)(F)F)cc2)Oc2ccc(NS(=O)(=O)c3ccc(Cl)cc3)cc2CC1=O,.,.,2.1,i,.,2,6,-1.3,.
COCCn1c(SCc2nnc(-c3ccccc3)o2)nc2sc3c(c2c1=O)CCC3,.,-0.9,.,.,0.63,.,.,.,12%
COc1ccc(CN(C)C[C@H]2Oc3ccc(NC(=O)CCCCCC(=O)Nc4ccccc4N)cc3CC(=O)N([C@@H](C)CO)C[C@H]2C)cc1,.,.,-9.9,i,.,0,0,-0.5,.
COc1ccc(NC(=S)NC(=O)c2csnn2)cc1,-20,1.3,-1.5,.,0.69,10,10,1.4,6%
CC1NC(=O)N(C)C2NC(=O)N(C)C(c3ccccc3)C12 (centres undefined),-9,1.0,.,.,0.71,.,.,.,18%
COc1cccc(NC(=O)Cc2nc(-c3ccccc3)sc2-c2ccc(C)cc2)c1,-4,3.7,-0.3,i,0.72,.,.,.,.
O=C(Nc1cccnc1)C12CC3CC(CC(C3)C1)C2,.,-0.2,1.1,i,0.69,14,5,11,-3%
CCn1c(=N)c(S(=O)(=O)c2ccccc2)cc2c(=O)n3ccccc3nc21,-11,1.3,-1.3,.,0.69,11,6,-4.4,-1%
COc1cc(-c2nnc(NC(=O)c3ccc(S(=O)(=O)N4CCOCC4)cc3)o2)cc(OC)c1OC,1,.,-1.1,i,0.67,12,4,-0.6,3%
CCOc1nc(-c2ccc(Cl)cc2)nc2ccccc12,2,2.4,.,.,0.67,.,.,.,-16%
Cc1ccc(C(=O)NC(C)c2ccc(-n3ccnc3)cc2)o1 (centres undefined),-6,-1.7,-7.8,i,0.65,-8,-12,0.6,2%
CO[C@@H]1CN(C)C(=O)c2ccc(NC(=O)Nc3ccc(C(F)(F)F)cc3)cc2OC[C@H](C)NC[C@@H]1C,.,.,3.1,i,.,-33,-62,41,.
CCOC(=O)CNc1c(-c2ccc(O)cc2)nc2ccc(Cl)cn12,65,-1.3,.,.,0.65,.,.,.,1%
O=C(Nc1sc2c(c1C(=O)c1ccc(Cl)cc1)CCCC2)c1cccnc1,4,1.6,.,.,0.76,.,.,.,28%
COC(=O)CSc1nc2sccc2c(=O)n1-c1ccccc1,-1,3.5,-2.2,i,0.63,3,-2,-0.6,.
O=C(CSc1nnc(COc2cccc3cccnc23)o1)N1CCCC1,.,0.5,1.1,i,0.63,-7,-3,-1.7,-7%
CCCN(C)C[C@@H]1OCCCC[C@@H](C)Oc2ccc(NC(=O)c3ccccc3)cc2C(=O)N([C@H](C)CO)C[C@@H]1C,.,1.9,-5.6&-0.7&4.3,i,.,0&5&20,7&10&17,-2.0&-3.1&5.9,.
Cc1ccc(C(=O)COC(=O)CCCC(=O)Nc2cc(C(F)(F)F)ccc2Cl)cc1C,10,2.2,.,.,0.72,.,.,.,.
Cc1nn(-c2ccccc2)c(Cl)c1C(=O)Nc1ccc(N2CCOCC2)cc1,13,-4.4,-0.9,.,0.63,18,17,-2.0,18%
Cc1noc(C)c1NC(=O)Nc1cccc2c1O[C@H](CN(C)C(=O)NC1CCCCC1)[C@@H](C)CN([C@@H](C)CO)C2=O,.,.,-3.0,i,.,1,5,-0.9,.
CCC(=O)OC1(C)C(=O)C=C2C=C(CCCC(=O)OC)OC=C2C1=O (centres undefined),-11,-0.7,6.7,i,.,3,5,20,.
COc1cc(C(=O)NCC(=O)NNC(=O)CN(C)S(=O)(=O)c2ccc(Cl)cc2)cc(OC)c1OC,-12,-1.9,-2.1,i,0.71,-2,0,-2.0,.
COc1ccccc1CNC(=O)C1(C)CCN1C(=O)C1(c2ccccc2)CC1 (centres undefined),.,5.9,-2.5,i,.,-3,-5,-2.0,.
COc1ccc(F)cc1-c1nc(N)nc(N)n1,-15,-1.0,-1.7,i,0.67,1,9,3.9,.
CCOC(=O)Cn1c(S(=O)(=O)Cc2ccccc2)nc2ccccc21,6,-2.2,1.8,i,0.73,4,8,-9.0,4%
COc1ccc(S(=O)(=O)N2CCN(CC(=O)N3c4ccccc4CC3C)CC2)cc1OC (centres undefined),.,-5.0,0.0,i,0.73,-3,0,0.0,-2%
C[C@H]1CN([C@@H](C)CO)C(=O)c2cccc(NC(=O)Nc3ccc4c(c3)OCO4)c2O[C@H]1CN(C)S(C)(=O)=O,.,.,1.1,i,.,1,4,0.2,.
COc1ccc(CNC(=O)C[C@H]2C=C[C@H](NC(=O)Nc3ccc4c(c3)OCO4)[C@H](CO)O2)cc1,.,.,-2.1,i,.,-6,-5,-2.5,.
COc1ccc(C(C)NC(=O)C2CCCC2)cc1 (centres undefined),-1,2.5,-0.9,i,0.72,6,22,4.5,.
O=C(CNC(=O)C12CC3CC(CC(C3)C1)C2)N/N=C\c1ccccn1,-55,-0.7,-2.8,i,.,-2,-4,0.6,-5%
CCCc1cc(=O)[nH]c(SCC(=O)Nc2cc(S(=O)(=O)N(CC)c3ccccc3)ccc2Cl)n1,2,4.6,0.8,i,0.67,-35,-44,5.6,.
O=C(C(NS(=O)(=O)c1cccc2nsnc12)c1ccccc1)N1CCN(c2ccccn2)CC1 (centres undefined),-54,1.6,.,.,0.7,.,.,.,24%
CS(=O)(=O)c1ccc2nc(NC(=O)C3CCCCC3)sc2c1,-1,-1.1,1.9,i,0.69,-7,-8,-10,4%
O=C(CN1CCN(c2ccc(F)cc2)CC1)NCc1ccc(F)cc1,.,-0.3,-5.6,i,0.68,-6,2,-2.8,-10%
CC(C)c1ccc2[nH]c(O)c(N=NC(=S)NCCc3ccccc3)c2c1,-8,2.1,-3.1,i,0.73,-5,8,-2.3,30%
C/C(=N\Nc1ccccc1Cl)c1ccc(-n2ccnc2)cc1,49,-5.5,7.9,i,.,-9,-18,0.5,.
COc1ccc(NC(=O)Nc2cccc3c2O[C@@H](CN(C)S(=O)(=O)c2ccccc2)[C@@H](C)CN([C@@H](C)CO)C3=O)cc1,.,.,2.7,i,.,-4,-5,2.1,.
O=C(CSC1=NCCS1)Nc1ccnc2ccccc12,17,-3.8,.,.,0.7,.,.,.,0%
O=C(CN1C(=O)C2C3CCC(C3)C2C1=O)OCC(=O)c1cccc([N+](=O)[O-])c1 (centres undefined),-15,0.5,-3.3,i,0.73,24,-2,-2.5,6%
C[N+]1(CCOC(=O)C2(c3ccccc3)CCCC2)CCCCC1,1,2.8,-0.7,i,.,38,28,2.9,2%
COC1=CC(=O)OC(c2cccc(C#N)c2)C1 (centres undefined),.,-0.8,-0.9,i,.,14,2,5.0,.
CCSc1nnc(Cn2c(=O)sc3ccccc32)n1-c1ccc(OC)cc1,-22,2.4,-1.0,i,0.75,4,-4,2.5,31%
Cc1noc(C)c1S(=O)(=O)Nc1ccc2c(c1)C(=O)N([C@H](C)CO)C[C@H](C)[C@H](CN(C)Cc1ccncc1)OCCCC[C@@H](C)O2,.,.,0.5,i,.,-1,-4,1.6,.
C[C@H]1CN([C@@H](C)CO)C(=O)Cc2cc(NC(=O)NC3CCCCC3)ccc2O[C@@H]1CN(C)C(=O)Nc1ccccc1,.,.,-1.4,i,.,4,7,-1.1,.
COc1cc(OC)c(OC)cc1/C=N/Nc1ncnc2c1[nH]c1ccc(C)cc12,-6,15,-11,i,.,-1,-1,1.4,6%
# Going on with the list:
SMILES,ALR H2O2 inh,HNF4A DNA FP,AF4-AF9 inh,FGF22 binding,Ecoli growth,Ecoli rRNA inh,Ecoli rRNA inh OD600,Ecoli rRNA inh RFP,Vif TR-FRET
CC(C)(C)NCCCCOc1ccc(F)cc1,-16,-1.6,.,.,0.7,.,.,.,38%
C[C@H]1CN([C@@H](C)CO)C(=O)c2cccc(NC(=O)CCCCCC(=O)Nc3ccccc3N)c2O[C@@H]1CN(C)CC1CCCCC1,.,.,-1.0,i,.,-9,-21,0.1,.
COc1ccc(/C=C2\N=C(SC)SC2=O)cc1OC,-3,-0.8,.,.,0.75,.,.,.,-3%
COc1ccccc1NC(=O)N(C)C[C@H]1Oc2cc(Br)ccc2S(=O)(=O)N([C@@H](C)CO)C[C@@H]1C,.,.,1.8,i,.,-3,5,1.8,.
C[C@H]1CN([C@@H](C)CO)C(=O)c2cc(NC(=O)Cn3cnnn3)ccc2O[C@@H]1CN(C)S(=O)(=O)c1cccs1,.,.,-1.9,i,.,2,6,0.1,.

# Bioassay records from PubChem BioAssay.
